Source: PubChem (Johns Hopkins Ion Channel Center)
KCNQ2 inh: KCNQ2 potassium channel inhibitors, primary screen, cell-based, CHO-K1, FluxOR thallium flux, B-score (AID 2156); Potassium voltage-gated channel subfamily KQT member 2 (Rattus norvegicus), O88943; 20 min; active compounds read low; only compounds with negative scores are shown here; some inactives read as strong as hits; B-score at 10 µM; 310,000 compounds, 1.1% hits;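 active = fluorescence ratio B-score at most minus 3 library SDs, with starting brightness B-score within 2 library SDs, cut at about -5.5 in these data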
Target sequence (O88943 whole entry, looked up): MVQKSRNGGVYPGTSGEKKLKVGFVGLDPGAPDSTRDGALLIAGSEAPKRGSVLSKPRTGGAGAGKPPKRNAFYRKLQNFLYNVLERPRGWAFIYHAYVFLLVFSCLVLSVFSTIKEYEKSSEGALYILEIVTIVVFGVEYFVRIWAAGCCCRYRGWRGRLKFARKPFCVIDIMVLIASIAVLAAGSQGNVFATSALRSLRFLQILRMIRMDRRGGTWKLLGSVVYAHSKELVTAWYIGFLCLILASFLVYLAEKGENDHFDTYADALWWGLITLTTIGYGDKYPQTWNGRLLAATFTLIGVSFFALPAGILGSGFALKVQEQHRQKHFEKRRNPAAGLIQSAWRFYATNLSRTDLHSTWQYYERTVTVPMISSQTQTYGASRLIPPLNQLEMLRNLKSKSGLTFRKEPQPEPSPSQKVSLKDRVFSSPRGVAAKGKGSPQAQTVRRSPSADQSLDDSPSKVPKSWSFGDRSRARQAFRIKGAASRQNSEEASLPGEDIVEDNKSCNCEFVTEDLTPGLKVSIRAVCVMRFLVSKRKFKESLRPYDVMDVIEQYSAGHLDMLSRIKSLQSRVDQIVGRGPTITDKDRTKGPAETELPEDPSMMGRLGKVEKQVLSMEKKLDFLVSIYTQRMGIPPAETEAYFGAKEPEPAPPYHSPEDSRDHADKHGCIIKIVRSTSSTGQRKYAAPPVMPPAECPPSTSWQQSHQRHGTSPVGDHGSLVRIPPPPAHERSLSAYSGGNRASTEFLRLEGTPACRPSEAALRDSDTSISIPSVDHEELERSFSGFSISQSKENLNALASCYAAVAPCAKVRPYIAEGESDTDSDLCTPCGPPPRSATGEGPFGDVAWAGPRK
KCNQ2 inh baseline: second read-out of KCNQ2 inh, no call of its own (marks repeat the call); B-score; measured here: initial fluorescence intensity artifact check;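 brightness before thallium and not channel activity; 0 = typical well and far values either way flag optical interference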
An asterisk follows results filed as active; i = inactive.

SMILES	KCNQ2 inh	KCNQ2 inh baseline
COc1ccc(/C=C2\SC(=S)N(CCC(=O)N(CCO)c3ccccc3)C2=O)cc1OC	i	-1.24
CC(=O)NC(=O)c1nnn(Cc2ccccc2)c1NC(C)=O	i	-0.55
Cc1ccc(N=CC2=C(O)CC(c3ccco3)CC2=O)cc1 (stereo unspecified)	i	2.4
CCOC(=O)c1cnc(SCC#N)nc1N	i	-2.59
CN(CCO)C(=O)C1CCN(c2ncc(C(F)(F)F)cc2Cl)CC1	i	0.37
O=C(NCc1ccccc1)c1noc2c1CCCC2	i	-1.05
Cc1c(C)n(C)c2ccc(C(=O)NCCCN3CCN(c4ccc(F)cc4)CC3)cc12	i	-0.1
Cc1ccc(Cl)cc1NC(=S)NCCCSC1CCCCC1	i	1.01
COc1ccc(S(=O)(=O)N2CCN(CC(=O)Nc3ccc(C)c(F)c3)CC2)cc1	i	-1.14
O=C(COC(=O)c1ccc(S(=O)(=O)N2CCOCC2)cc1)NC1CCCCCCC1	i	-0.5
COc1ccc(OCCNC(=O)CCCO)cc1	i	0.75
Cc1nc2sccn2c1P(c1c(C)nc2sccn12)c1c(C)nc2sccn12	i	1.2
CC(=O)Nc1sc2c(c1C(c1ccc(F)cc1)N1CCOCC1)CCCC2 (stereo unspecified)	i	0.73
Cc1ccc2c(c1)nnn2C1CCN(S(=O)(=O)c2ccc(C(=O)N3C(C)CCCC3C)cc2)CC1 (stereo unspecified)	i	-0.43
O=[N+]([O-])c1ccc(Cl)c(S(=O)(=O)N2CCCCCC2)c1	i	-0.28
COc1ccc(N2C(=O)/C(=C/c3ccc([N+](=O)[O-])cc3)N=C2C)c(OC)c1	i	0.75
Cn1ncc(C#N)c1/N=C/N1CCCCC1	i	0.53
CCOc1cc(C2c3c(n[nH]c3C)C(=O)N2c2ccc(Br)cc2)ccc1O (stereo unspecified)	i	0.28
CN1CCc2c(sc3c2C(=O)NC(c2cccs2)N3)C1 (stereo unspecified)	i	2.45
COc1cc(CN2CCN(Cc3ccccc3C(F)(F)F)CC2)cc(OC)c1OC	i	-1.35
CCCCNC(=O)CCN1N=C(c2ccccc2)CCC1=O	i	-0.02
CCOc1ccc(S(=O)(=O)NCc2cccnc2)cc1C	i	0.36
Cc1ccc(S(=O)(=O)N(C)CC(=O)O/N=C(\N)c2ccc([N+](=O)[O-])cc2)cc1	i	0.17
O=C(Cc1ccc(Cl)cc1Cl)OCC(=O)c1ccc[nH]1	i	1.88
O=C(CSc1nc2[nH]ncc2c(=O)[nH]1)Nc1cccc([N+](=O)[O-])c1	i	2.12

The results go on:
SMILES	KCNQ2 inh	KCNQ2 inh baseline
Cc1cccc(NC(=O)COc2cccc3c2CCN(C)C3=O)c1	i	0.25
CC(Oc1ccc(Br)cc1)C(=O)Nc1cc(Cl)ccc1N1CCN(C)CC1 (stereo unspecified)	i	-1.11
Cc1ccc(CN(C)C(=O)COC(=O)CSc2ccc(C(N)=O)cc2[N+](=O)[O-])cc1	i	-1.78
CC(C)(C)NC(=O)NC(=O)COC(=O)Cc1c(Cl)cccc1Cl	i	-0.72
COc1ccc(CC(=O)Nc2cccc(/C(C)=N/NC(=O)c3cccc([N+](=O)[O-])c3)c2)cc1	-6.04*	-0.04*
Cc1ccc(C)c(NC(=O)CN(C)C(=O)c2cccc(-n3cccc3)c2)c1	i	1.45
Cc1cc(NC(=O)CCCn2nc([N+](=O)[O-])c(Br)c2C)no1	i	-0.03
COc1cccc(C(c2nnnn2Cc2ccco2)N2CCN(c3cccc(C)c3C)CC2)c1OC (stereo unspecified)	-6.2*	1.09*
CCOC(=O)CC1C(=O)NCCN1Cc1cccc(C(F)(F)F)c1 (stereo unspecified)	i	1.46
O=C(Cn1c(COc2ccc(Cl)cc2)nc2ccccc21)NCC(F)(F)F	i	-0.7
COc1cc(C)ccc1OCCCOc1cc(C)ccc1Cl	i	-0.52
Nc1c(C(=O)NCc2ccc(Cl)cc2)sc2nc3c(c(C(F)(F)F)c12)CCC3	-6.07*	-0.61*
Cc1ccnc(NC(=O)c2ccc3c(c2)C(=O)N(CCC(C)C)C3=O)c1	i	1.4
COCCn1c(=O)[nH]c(=O)c2cc(C(=O)c3cc(Cl)ccc3O)cnc21	i	1.01
Cn1c(NC(=O)c2ccc(Cl)cc2)c(-c2ccccn2)c(=O)c2ccccc21	i	-0.03
COc1ccc2c(c1)c(=O)oc1cc3occ(C(C)(C)C)c3cc12	i	0.44
CCn1c(Cc2cccn2C)nnc1SCC(=O)c1ccc(C)cc1	i	1.05
COc1ccccc1Nc1c([N+](=O)[O-])cc(C)cc1[N+](=O)[O-]	i	-0.12
O=C(CC1C(=O)NCCN1C(=O)Nc1ccc(Cl)cc1)Nc1ccc(F)cc1 (stereo unspecified)	i	6.35
O=C(c1cc2n(n1)C(C(F)(F)F)CC(c1ccc(F)cc1)N2)N1CCCC1 (stereo unspecified)	i	0.66
COc1cc(/C=C/C(=O)O)cc(OC)c1O	i	0.39
CN(C)CCN(C(=O)c1ccc(S(=O)(=O)N(C)c2ccccc2)cc1)c1nc2cc3c(cc2s1)OCO3	i	0.22
CCOc1ccc(NC(=O)c2ccc3c(c2)N(Cc2ccc(F)cc2)C(=O)CS3=O)cc1 (stereo unspecified)	i	0.78
COc1cccc(NC(=O)c2ccc3c(c2)N(C)CCS3)c1	i	0.35
CCCCn1c(SCC(=O)NC2CCCC2)nnc1-c1ccco1	i	-1.37

Continued; it opens with the 4 that closed the last part.
SMILES	KCNQ2 inh	KCNQ2 inh baseline
CN(C)CCN(C(=O)c1ccc(S(=O)(=O)N(C)c2ccccc2)cc1)c1nc2cc3c(cc2s1)OCO3	i	0.22
CCOc1ccc(NC(=O)c2ccc3c(c2)N(Cc2ccc(F)cc2)C(=O)CS3=O)cc1 (stereo unspecified)	i	0.78
COc1cccc(NC(=O)c2ccc3c(c2)N(C)CCS3)c1	i	0.35
CCCCn1c(SCC(=O)NC2CCCC2)nnc1-c1ccco1	i	-1.37
CCc1ccccc1N1CCN(S(=O)(=O)c2cc(OC)ccc2OC)CC1	-7.06*	0.27*
CCOc1cc(/C=C2\N=C(C)OC2=O)cc(Br)c1OCCc1ccccc1	i	0.78
O=C(Nn1c(O)c(C=C2N=c3ccccc3=N2)sc1=S)c1ccc(Cl)cc1	i	0.43
NCCCCc1cn(CC(=O)N2CCNCC2)nn1	i	0.58
O=C(COc1ccccc1)NNC(=O)c1cc2ccccc2oc1=O	i	2.18
CCN(CC)CCCNC1=C(Cl)C(=O)c2ccccc2C1=O	i	-1.77
Cc1cc(C)c2cc(CNC3CCCC3)c(Cl)nc2c1	i	-0.86
O=C(NCCCN1CCOCC1)c1ccco1	i	-0.07
COc1cc(-c2n[nH]c(=S)n2-c2ccccc2C(F)(F)F)cc(OC)c1OC	i	-0.05
COc1cc(/C=C2/C(=N)N3C=CSC3=NC2=O)ccc1OCCCOc1ccccc1C	i	1.52
COc1cc(C(=O)NNC(=S)NC(=O)/C=C/c2ccccc2)cc(OC)c1OC	i	0.06
COc1cccc(C(=O)Nc2cc3c(cc2Cl)OCCCO3)c1	i	0.05
COc1ccccc1CNC(=O)Cn1cc2c(n1)CCCC2	i	-1.1
Cc1c(C)c(C)c(S(=O)(=O)N2CCNCC2)c(C)c1C	i	-1.26
OC(Cn1nnc2ccccc21)Cn1c(C(F)(F)F)nc2ccccc21 (stereo unspecified)	i	1.85
O=C(CS(=O)(=O)c1ccccc1)Nc1nccs1	i	-1.69
O=c1[nH]c2ccccc2n1Cc1ccccc1	i	-0.91
CCOc1ccc(Br)cc1S(=O)(=O)Nc1ccc(C(=O)OC(C)C(=O)N(C)c2ccccc2)cc1 (stereo unspecified)	i	0.7
CC(=O)Nc1ccc(NC(=O)c2ccc(C3SCC(=O)N3CCc3ccccc3)cc2)cc1 (stereo unspecified)	i	0.05
CCCCC(=O)NC(c1ccc(Cl)cc1Cl)c1ccc2cccnc2c1O (stereo unspecified)	i	0.51
Cc1cc(NC(=O)CSCCc2ccncc2)no1	i	-2.56
Cc1nc(Cl)cc(CS(=O)(=O)c2ccc(Cl)cc2)n1	i	1.61
O=c1cc(CNC2CCCCC2)c2ccccc2[nH]1	i	1.78
N#Cc1ccc(OC(=O)Cc2ccsc2)cc1	i	-0.8
COC(=O)c1sccc1NC(=S)N1CCCC(C)C1 (stereo unspecified)	i	-1.2

The closing 5 records of the part above open the next one.
SMILES	KCNQ2 inh	KCNQ2 inh baseline
Cc1cc(NC(=O)CSCCc2ccncc2)no1	i	-2.56
Cc1nc(Cl)cc(CS(=O)(=O)c2ccc(Cl)cc2)n1	i	1.61
O=c1cc(CNC2CCCCC2)c2ccccc2[nH]1	i	1.78
N#Cc1ccc(OC(=O)Cc2ccsc2)cc1	i	-0.8
COC(=O)c1sccc1NC(=S)N1CCCC(C)C1 (stereo unspecified)	i	-1.2
CCOc1ccc(C2c3[nH]c4ccccc4c3CCN2C(=O)Cn2cncn2)cc1 (stereo unspecified)	i	0.26
Cc1cc(C)n2nc(C(=O)OCC(=O)c3cc(C)n(C)c3C)nc2n1	i	-1.55
COCCOC(=O)C1=C(C)N=C2SCCC(=O)N2C1c1ccc(OC(=O)c2ccco2)cc1 (stereo unspecified)	i	2.17
Cc1ccc(S(=O)(=O)N2CN(CC3CCCO3)c3nc4ccccc4nc32)cc1 (stereo unspecified)	i	-0.18
CCCN(CCC)CCCNC(=O)CC(C(=O)N1CCc2ccccc21)n1ccnc1 (stereo unspecified)	i	0.6
O=C(/C=C/c1ccccc1)OCN1C(=O)c2ccccc2C1=O	i	0.03
O=C(NCc1ccco1)C(=O)NCC1OCCN1S(=O)(=O)c1ccc(F)cc1 (stereo unspecified)	i	-0.74
CCCCNC(=S)N1CCN(CC)CC1	i	0.85
COc1cc(/C=C2/OC(=O)c3cc([N+](=O)[O-])ccc32)cc(OC)c1OC	i	0.96
O=C(Nc1cccc(Cl)c1N1CCOCC1)c1cccs1	i	-0.71
O=C(O)CN=C(NS(=O)(=O)c1ccc(Cl)cc1)c1ccc(F)cc1	i	0.39
Cc1onc(-c2ccccc2)c1C(=O)Oc1ccccc1	i	1.35
COc1ccc(Cl)cc1-n1c(=S)sc2c(=O)n(-c3ccc(F)cc3)c(SCC(=O)O)nc21	i	-1.05
O=C1/C(=C\c2cccs2)Sc2ccc3ccccc3c21	i	1.04
CS(=O)(=O)Nc1nc2ccccc2[nH]1	i	-0.77
CC1CCCCN1C(=O)CSc1nc2ncccc2[nH]1 (stereo unspecified)	i	-0.19
CC(C)Cc1nc(N2CCN(C(=O)c3ccccc3)CC2)c(C#N)c2c1CCC2	-6.57*	0.01*
CCc1ccccc1NC(=O)[C@@H]1CCC(=O)N1C1OC(=O)c2ccccc21 (stereo partly specified)	i	1.29
COCCN(Cc1ccccc1)C(=O)c1cccc(S(=O)(=O)N2CCN(c3ccccc3)CC2)c1	i	0.04
CCN(CC)CCn1c2ccccc2c2n[nH]c(=S)nc21	i	1.06
CSc1ccc(S(=O)(=O)N2c3ccccc3CC2C)cc1 (stereo unspecified)	i	-0.46
CCOc1ccc(NC(=O)N2CCC(C(N)=O)(N3CCCCC3)CC2)cc1	i	0.35
CCCOc1ccc2oc(=O)c3c(c2c1)CCCN3C(=O)CN1CCCC(C(=O)OCC)C1 (stereo unspecified)	i	-0.31
NS(=O)(=O)c1ccc(S(=O)(=O)NCCc2ccccc2)cc1	i	0.46
COc1ccccc1/C=C1\SC(=S)N(CCC(=O)NCCCN2CCOCC2)C1=O	i	-0.19

Later entries
SMILES	KCNQ2 inh	KCNQ2 inh baseline
CCS(=O)(=O)N1CCC(C(=O)OCC(=O)c2ccc(Br)cc2)CC1	i	0.48
O=C(c1ccccc1)c1ccc(OCC(O)CN2CCN(Cc3ccccc3)CC2)cc1 (stereo unspecified)	i	-0.35
Cc1onc(-c2ccccc2Cl)c1C(=O)NCc1ccccc1	i	0.94
CN(C)S(=O)(=O)c1ccc(C(=O)NNC(=O)C2COc3ccccc3O2)cc1 (stereo unspecified)	i	0.42
Cc1cc(C)cc(N(CC(=O)N2CCC(C)CC2)S(=O)(=O)c2ccccc2)c1	i	2.36
O=C(CCn1c(=O)oc2ccccc21)Nc1cccc([N+](=O)[O-])c1	i	1.76
CCOc1ccc(NC(=O)NNC(=O)c2ccc3ccccc3c2O)cc1	i	0.02
O=C(CSCc1ccccc1)NNc1c(F)c(F)cc(F)c1F	i	0.84
COC(=O)/C(C#N)=C/c1c(N2CCCCCC2)nc2c(C)cccn2c1=O	i	-0.13
Cc1cccc2cc(C(c3nnnn3Cc3ccccc3)N3CCN(C)CC3)c(=O)[nH]c12 (stereo unspecified)	i	0.69
CCOc1ccc(-n2c(SCC(=O)NCc3ccco3)nc3ccccc3c2=O)cc1	i	0.76
NNC(=O)c1sc2cc(C(F)(F)F)cnc2c1-c1ccccn1	i	-0.67
C/C(CS(=O)(=O)c1ccc(Cl)c(Cl)c1)=N/NC(N)=S	i	0.01
O=C(O)c1ccc(-c2ccc(/C=c3/sc4nc5ccccc5n4c3=O)o2)cc1Cl	i	3.01
Cc1cc(C)c(C(=O)N(C)CC2CCCN(CCc3ccccc3F)C2)o1 (stereo unspecified)	i	-0.06
CCCc1cc(C(=O)Nc2ccc(CC)cc2)no1	i	-1.92
CCC(=O)Nc1ccc(OCc2nnc3c4ccccc4c(C)nn23)cc1	i	-0.26
Cc1ccc(C)c(-c2csc(N/N=C/c3ccco3)n2)c1	i	0.94
CC1(C)Cc2ccccc2C(COc2ccccc2)=N1	i	-0.39
COc1ccccc1NC(=O)c1ccc2c(c1)C(=O)N(c1ccccc1OC)C2=O	i	-0.71

Of the compounds above, these contain a tert-butyl group:
SMILES	KCNQ2 inh	KCNQ2 inh baseline
CC(C)(C)NC(=O)NC(=O)COC(=O)Cc1c(Cl)cccc1Cl	i	-0.72
COc1ccc2c(c1)c(=O)oc1cc3occ(C(C)(C)C)c3cc12	i	0.44

An excerpt; rates above refer to the full screens.
